# Source: PubChem (National Center for Advancing Translational Sciences (NCATS))
# VDR inh = vitamin D3 receptor (human) inhibition; P11473; VDR-SRC2-3 peptide fluorescence polarization, 2 h; Potency, µM, inactives show max response, negative = inhibition, hits mostly inhibitors; 400,000 compounds, 0.93% hits; active = well fitted inhibition curve with a large enough effect; inconclusive = small, poorly fitted or top-dose-only effect, or another doubt; inactive = no such curve, though single readings can be large or run the other way; note: series mostly up to about 120 µM
# Target sequence (P11473 whole entry, looked up): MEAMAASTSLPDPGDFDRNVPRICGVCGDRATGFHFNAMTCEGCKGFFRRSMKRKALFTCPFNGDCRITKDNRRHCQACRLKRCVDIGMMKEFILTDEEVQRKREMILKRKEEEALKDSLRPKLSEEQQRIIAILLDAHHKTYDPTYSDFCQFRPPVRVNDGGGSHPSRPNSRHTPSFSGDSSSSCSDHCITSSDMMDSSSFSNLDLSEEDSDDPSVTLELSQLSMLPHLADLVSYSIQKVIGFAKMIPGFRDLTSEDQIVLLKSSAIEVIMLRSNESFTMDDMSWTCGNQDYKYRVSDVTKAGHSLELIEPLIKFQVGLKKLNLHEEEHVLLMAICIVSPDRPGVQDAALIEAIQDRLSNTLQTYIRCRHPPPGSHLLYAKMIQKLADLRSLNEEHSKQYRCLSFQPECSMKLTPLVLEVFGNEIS
#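 Fluorescence polarization assay measuring small-molecule disruption of VDR binding to the coregulator peptide SRC2-3. Compounds were pin-transferred (23 nl) into the reagent mix and incubated 2 h at room temperature before reading.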
# * hit, by the source's call; ? = inconclusive; & = joins results of further samples; [ ] = remark or other dose. % is set by controls: 0 for no effect and ±100 for the full control effect; potency is the fitted concentration of half-maximal effect. This is a subset; rates above refer to the full screens.
VDR inh,compound
5%,COCCNc1ncnc2ccc(-c3ccccc3CN(C)C)cc12
4%,CCCCn1nnc(NC(=O)CCC)n1
-17%,CCOC(=O)c1ccc(NC(=O)c2ccc(CN3CCc4ccccc4C3)cc2)cc1
24%,COc1cc(OC)c(NC(=O)Cn2cnc3c(nc4n3CCCCC4)c2=O)cc1Cl
8%,O=C(COc1ccc(S(=O)(=O)N2CCCC2)cc1Cl)NCc1ccco1
6%,O=C(NCCN1CCOCC1)Nc1ccc(Cl)cc1
4%,O=C1NC(=S)N/C1=C/C=C/c1ccccc1
2%,Cc1ccc(N2CCN(S(=O)(=O)c3ccc4oc(=O)ccc4c3)CC2)cc1Cl
?,CC(=O)OC1CC2C(C)(C)C(=O)C3OC3[C@]2(C)C2CC[C@@]3(C)C(c4ccoc4)OC(=O)C4OC43[C@]12C (some centres not stated)
-21%,O=C(CSc1ccc(Cl)cc1)NC(=O)c1ccccc1
-27%,O=c1c2c(nc3nc(NCc4cccc5ccccc45)[nH]n13)CCC2
4%,CCN(C(=O)Cn1c(C(=O)OC)cc2sccc21)c1cccc(C)c1
-4%,O=C(CSc1nc2ccccc2c(=O)n1-c1ccc(F)cc1)Nc1cc(S(=O)(=O)N2CCOCC2)ccc1Cl
0%,COc1ccc(CC(=O)NNC(=O)c2ccc(Br)o2)cc1
?,COC(=O)c1ccc(NC(=O)CSc2nc3cc4ccccc4cc3[nH]2)cc1
11%,COC(=O)c1ccccc1NC(=O)Cc1noc2ccc(C)cc12
-19%,COc1ccc(Cl)cc1C(=O)NNC(=O)COC(=O)CCN=C1NS(=O)(=O)c2ccccc21
1%,CC(C)Nc1nc(N)c(C(=O)C23CC4CC(CC(C4)C2)C3)s1
-9%,O=C(c1cccs1)N1CCCC(N2CCN(c3cccc(C(F)(F)F)c3)CC2)C1 (configuration not stated)
-14%,Cc1ccc2c(c1)CC[C@H]1CC(=O)CC[C@@]21C
-2%,NC(=O)NN=C1CCn2cccc21
-10%,CCOC(=O)C1CCC(CNCc2ccc(Cl)cc2)CC1 (configuration not stated)
0%,O=C(Nc1ccc2c(c1)OCO2)c1cc(-c2ccc(Cl)cc2)on1
-9%,CC(C)(C)OC(=O)N1CCC(c2c(C(=O)NCc3ccco3)cnn2-c2ccc(F)cc2)CC1
4%,Cn1c(CO)cnc1SCc1ccc(Cl)cc1
-5%,CCn1c(-c2cccc(Br)c2)n[nH]c1=S
15%,Cc1ccccc1OCC(=O)Nc1ccc(C(=O)OCc2cc(=O)n3ccsc3n2)cc1
-22%,O=C(NC(=S)NNC(=O)c1ccco1)c1ccccc1
-1%,CCOC(=O)N1CCC(NS(=O)(=O)c2cc3c(cc2C)NC(=O)CO3)CC1
-16%,COc1ccc(Cl)cc1NC(=O)COC(C)=O
-26%,CSc1nc(N)cc(=O)[nH]1
1%,O=C(NCCc1c[nH]c2ccccc12)/C(=C\c1ccco1)NC(=O)c1ccco1
-9%,Cc1ccc(C(=O)Nc2cc(-c3ccn[nH]3)c(C)n(N)c2=O)cc1
-22%,O=C(Cc1csc(Nc2nc(=S)[nH]c3ccccc23)n1)N1CCN(c2cccc(C(F)(F)F)c2)CC1
9%,COc1ccccc1N1CCN(C(=O)c2ccc(N3CCCC3=O)cc2)CC1
1%,NS(=O)(=O)c1ccc(CCNC(=O)COC(=O)C2COc3ccccc3O2)cc1 (configuration not stated)
12%,Cc1ccsc1/C=N/NC(=O)c1nnn(-c2nonc2N)c1CSc1ccccc1
-2%,CCC(C(=O)NCCCN1CCN(CCCNC(=O)C(CC)c2ccccc2)CC1)c1ccccc1 (configuration not stated)
15%,COCCNc1oc(-c2ccc(COc3ccc(OC)cc3)o2)nc1C#N
-9%,CCC(C)NC(=S)Nc1ccccc1OC (configuration not stated)

# Not a retest: 6 of the compounds above.
VDR inh,compound
-2%,NC(=O)NN=C1CCn2cccc21
-10%,CCOC(=O)C1CCC(CNCc2ccc(Cl)cc2)CC1 (configuration not stated)
0%,O=C(Nc1ccc2c(c1)OCO2)c1cc(-c2ccc(Cl)cc2)on1
-9%,CC(C)(C)OC(=O)N1CCC(c2c(C(=O)NCc3ccco3)cnn2-c2ccc(F)cc2)CC1
4%,Cn1c(CO)cnc1SCc1ccc(Cl)cc1
-5%,CCn1c(-c2cccc(Br)c2)n[nH]c1=S

# Fetched one by one from the list above:
VDR inh,compound
1%,NS(=O)(=O)c1ccc(CCNC(=O)COC(=O)C2COc3ccccc3O2)cc1 (configuration not stated)
-2%,CCC(C(=O)NCCCN1CCN(CCCNC(=O)C(CC)c2ccccc2)CC1)c1ccccc1 (configuration not stated)
4%,Cn1c(CO)cnc1SCc1ccc(Cl)cc1
-22%,O=C(Cc1csc(Nc2nc(=S)[nH]c3ccccc23)n1)N1CCN(c2cccc(C(F)(F)F)c2)CC1
-26%,CSc1nc(N)cc(=O)[nH]1

# Additional compounds follow.
VDR inh,compound
-2%,Cc1ccccc1-c1cc(C(=O)NCc2cccs2)nn1CC1CC(c2cccc([N+](=O)[O-])c2)=NO1 (configuration not stated)
-9%,CC(=O)c1cc2c(cc1NC(=O)Cn1nc(-c3ccc(C)cc3)ccc1=O)OCO2
-8%,CCOC(=O)c1c(C)nc(C)c(C(=O)OCC)c1-c1cccnc1
-12%,COc1ccc(F)cc1S(=O)(=O)NC1CCCCCC1
-5%,CCOc1ccccc1NC(=O)c1ccc(OCC)c([N+](=O)[O-])c1
13%,O=C(OCc1nnc(-c2ccc([N+](=O)[O-])cc2)o1)C1CCN(C(=O)c2ccc(F)cc2)CC1
-6%,COc1cc(C)cc(C(=O)O)c1C1=C(O)c2cccc(O)c2C(=O)C1=O
8%,COc1ccc(NC(=O)CN(Cc2ccccc2)S(C)(=O)=O)cc1
-3%,O=C(CCCC(=O)OCC(F)(F)C(F)F)Nc1ccc(NC(=O)CCCC(=O)OCC(F)(F)C(F)F)cc1
11%,COc1ccc(-n2nc3ccc(NC(=O)c4c(OC)cccc4OC)cc3n2)cc1
5%,Cc1ccccc1NCc1nnc2n1CCCCC2
1%,COc1cccc(-c2cncnc2NCCc2cnc[nH]2)c1
40%[activator],COc1cccc(/C=C/C(=O)OCC(=O)Nc2cccc(S(=O)(=O)N(C)C)c2)c1
-4%,COc1cc(CNCCc2ccc(S(N)(=O)=O)cc2)ccc1OCC(=O)N1CCCCC1
14%,CCN1CCN(c2ccc(S(=O)(=O)N3CCOCC3)cc2NC(=O)C(C)Oc2cccc(Cl)c2)CC1 (configuration not stated)
-4%,Nc1nnnn1/N=C/c1cccs1
-6%,COc1ccc(-c2nc3cnc(N4CCOCC4)nc3n(C)c2=O)cc1
?,COc1cc(/C=C(\C#N)C(=O)Nc2cccc(C(=O)O)c2)ccc1OCc1ccc(F)cc1
4%,CCc1cc(C(=O)Nc2ccc(OC)nc2)sc1C
-9%,N#C/C(=C\c1ccc(C(=O)O)cc1)c1ccccn1
-5%,CC(C)(C)CN1CCN(Cc2cc3ccccc3[nH]2)CC1CCO (configuration not stated)
6%,CCc1cccc2sc(N3CCN(C(=O)c4cc5ccccc5cc4OC)CC3)nc12
-18%,CC(=O)N1N=C(c2ccccc2)CC1c1cn(C)c2ccccc12 (configuration not stated)
9%,CN(C(=O)COC(=O)c1cc(Br)c(Br)s1)C1CCS(=O)(=O)C1 (configuration not stated)
-14%,C=CCOc1ccc2oc(=O)cc(C)c2c1
9%,CC1(C)C2CCC1(C)C(OCC[N+](C)(C)CC(=O)OC1CCCCC1)C2 (configuration not stated)
17%,CCc1ccc(OCC(=O)Nc2ccc3c(c2)OCCO3)cc1
-7%,CCOCc1c(C(=O)NC2CCCCCC2)oc2ccccc12
-12%,Cc1cc(F)ccc1NC(=O)CCS(=O)(=O)c1cc2c(cc1C)NC(=O)CO2
-3%,CN(Cc1ccccn1)Cc1nc(Cc2ccccc2Cl)no1
-18%,CC(NCC(=O)Nc1cc(Cl)cc(Cl)c1)c1ccccc1 (configuration not stated)
-23%,Nc1nonc1-n1nnc(C(=O)N/N=C/c2ccco2)c1-c1ccccc1
-2%,COc1ccc(C(=O)Cc2cc(OC)c(OC)cc2[N+](=O)[O-])c(OC)c1
-23%,CC(=O)NC(Cc1c[nH]c2ccccc12)C(=O)NCCc1ccccc1 (configuration not stated)
7%,COc1ccc(-c2noc(-c3cc(C(C)C)[nH]n3)n2)cc1
-2%,CCN(C(=O)c1cc2c(s1)-c1ccccc1S(=O)(=O)C2)c1cc(OC)ccc1OC
8%,O=C(Cn1cnc2c(nnn2-c2ccccc2)c1=O)NCc1ccco1
10%,CC(C)NS(=O)(=O)c1ccc(OCC(=O)Nc2cccc3ccccc23)cc1
7%,CCCCCc1nc2c(c3c1CCCC3)CCCC2
2%,CSCC[C@H](NC(=O)N1CCn2c1nc1ccccc12)C(=O)NC1CC1

# Reprinted from the part before: three compounds; new compounds follow.
VDR inh,compound
10%,CC(C)NS(=O)(=O)c1ccc(OCC(=O)Nc2cccc3ccccc23)cc1
7%,CCCCCc1nc2c(c3c1CCCC3)CCCC2
2%,CSCC[C@H](NC(=O)N1CCn2c1nc1ccccc12)C(=O)NC1CC1
-12%,COCCn1c(CN(Cc2ccccc2)Cc2ccccc2)nc2c1c(=O)n(C)c(=O)n2C
-3%,Cc1ccccc1NC(=O)/C(C#N)=C\c1ccsc1
-17%,COc1ccc(CN2CCN(C(=O)C3CCN(C(=O)Nc4ccccc4)CC3)CC2)cc1OC
-4%,O=P(CO)(Cc1ccccc1)Cc1ccccc1
-18%,CCN(CCO)C(=O)CC(c1ccccc1)c1cc(Br)ccc1O (configuration not stated)
0%,Cc1ccc(OCc2nc3ccccc3n2CCOc2ccc(Cl)cc2)cc1
-1%,COc1ccc(NC(=O)C2CCN(C(=O)[C@@H]3Cc4ccccc4CN3C(=O)OC(C)(C)C)CC2)cc1
79µM*,CC(C)(C)c1nc2cc(Cl)c([N+](=O)[O-])cc2o1
5%,COc1ccc(C2=NOC(C(=O)NCc3ccco3)C2)cc1 (configuration not stated)
4%,Cc1ncc([N+](=O)[O-])n1Cc1ccccc1F
-23%,COC(=O)[C@]1(C)N[C@H](c2ccc(SC3CCCCC3)c(OC)c2)[C@@H]2C(=O)N(C)C(=O)[C@@H]21
-8%,CCOCCCNCc1cc(Br)ccc1OCC
1%,O=C(Nc1ccccc1)C1(c2ccccc2)CC1(Cl)Cl (configuration not stated)
8%,Cc1ccc(C)c(N2CCN(C(=O)Cn3ncn4cccc4c3=O)CC2)c1
-12%&14%,O=C(CSc1nc2c([nH]c3ccccc32)c(=O)n1-c1ccccc1)N1CCOCC1
-25%,CSc1cccc(NC(=O)c2nnn(Cc3ccccc3)c2N)c1
1%&-12%,CC[C@H](C)[C@@H](NC(=O)O[C@@H]1C(=O)c2cc(Br)ccc2O[C@H]1c1cccc(OC)c1)C(=O)OC
-10%,COC(=O)c1sc(NC(=S)NC(=O)c2ccccc2)nc1C
-8%,CCC(C)NC(=O)c1ccc(-n2c(=S)[nH]c3ccccc3c2=O)cc1 (configuration not stated)
-4%,CCOC(=O)c1sc(-c2ccccc2)cc1NC(=O)CSc1nnnn1C
4%,O=C1c2cccc3cccc(c23)C(=O)N1CC1CCN(S(=O)(=O)c2ccccc2)CC1
5%,Cc1ccc(C)c(NC(=O)c2cc(=O)c3cc(C)cc(C)c3o2)c1
-6%,COc1cc2nc(/C=C/c3ccc(N(C)C)cc3)sc2cc1SC
-8%,CCOCCCN(C(=O)Cn1nnc(-c2ccc(C)o2)n1)C(C(=O)NC1CCCC1)c1ccc(C)o1 (configuration not stated)
6%,N#Cc1ccccc1NC(=O)C(=O)NCC1CCCN1S(=O)(=O)c1cccs1 (configuration not stated)
-6%,CCOC(=O)c1ccc(NC(=O)c2c(Cl)cc(C)nc2C)cc1
-8%,CC(C)C[C@@H]1NC(=O)[C@H](Cc2ccccc2)N(C)C(=O)[C@H](C)NC(=O)c2ccccc2NC(=O)[C@H](Cc2ccc(O)cc2)N(C)C1=O
26%,CC(C(=O)N1CCc2ccccc21)N1CCN(Cc2ccccc2)CC1 (configuration not stated)
2%,COC(=O)C1=C(C(=O)OC)[C@@H]2N(Cc3ccccc3)c3ccccc3[C@@]23C[C@@H](C(=O)OC)N(C(C)=O)C3=N1
4%,Cc1ccc([N+](=O)[O-])cc1N(CC(=O)NCC1CCCO1)S(C)(=O)=O (configuration not stated)
-7%,NC(=NC(=O)c1ccccc1)C1=C(O)CCC1=O
18%,O=C(Nc1sc2c(c1C(=O)NC1CC1)CCCCCC2)c1ccco1
6%,CC1(C)Cc2ccccc2C(NN=C2CCCC2)=N1
5%,O=C(CN1CCC2(CC1)OCCO2)c1c[nH]c2ccccc12
5%,CC1=C(C#N)C(NC(=O)c2ccco2)(C(F)(F)F)C(=O)N1 (configuration not stated)
-15%,COCCCNc1nc2c(-c3cccc(C)c3)nnn2c2ccc(Cl)cc12
-3%,CC1=CC(C)C(C(=O)O)C(C(=O)Nc2cccnc2)C1 (configuration not stated)
-8%,CCOC(=O)N1CCc2c(sc(NCc3ccc(N(CC)CC)cc3)c2C(=O)Nc2cc(OC)ccc2OC)C1
-21%,Cc1ccccc1NC(=O)CSc1nc2ccccc2c(=O)n1C
8%,COc1ccccc1N(Cc1cc(=O)[nH]c2ccccc12)C(C)=O
-7%,OCC1(CCc2ccccc2)CCN(Cc2c(F)ccc(F)c2F)CC1
-28%,COc1ccc(S(=O)(=O)N2CCCCC2)cc1NC(=O)CCCOc1ccc(C)cc1
-4%,NC(=O)c1ccccc1NC(=O)CC12CC3CC(CC(Br)(C3)C1)C2
-4%,Cc1ccc(Cn2c(SCC(=O)N(C)C3CCS(=O)(=O)C3)nc3ccccc3c2=O)cc1 (configuration not stated)
-5%,O=C(Nc1ccc(F)cc1F)c1noc2c1CCc1ccccc1-2
8%,CCN(C(=O)COC(=O)c1ccccc1Oc1ccccc1)c1c(N)n(Cc2ccccc2)c(=O)[nH]c1=O
-4%,CC(=O)Nc1ccc(C(=O)N/C(=C\c2ccccc2)C(=O)Nc2cccc(C(=O)O)c2)cc1
-12%,CC(O)CNc1nc2ccccc2n1-c1ncnc2sc3c(c12)CCC3 (configuration not stated)
